Marburg entry inh – inhibitors of Marburg virus binding or cell entry; Marburg virus pseudotyped entry inhibition, cell reporter; control for the full effect not named in the record; about a third of the inactives were read at about 46 µM; Potency, µM (series often up to 37.8 µM), for the others: top-dose activity change, negative = inhibition, hits mostly inhibitors; actives 1.8% (n = 300,000); active = well fitted inhibition curve with a large enough effect; inconclusive = small, poorly fitted or top-dose-only effect, or effect the other way; inactive = flat fitted curve, though single readings scatter; tested in HEK293 cells; about a fifth of its hits are not listed in these tables; also: % is scaled to controls: 0 for no effect and ±100 for the full control effect; luciferase read-out
Cruzain noTriton – cruzain (T. cruzi) inhibition without detergent; actives 2.3% (n = 200,000); purified cruzain, Z-FR-AMC fluorescence, no detergent; Potency, µM, inactives show max response, negative = inhibition, usual class: inhibitors; P25779; AID 1476;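 also: plate controls were enzyme without inhibitor for no effect and buffer without enzyme for full effect; nearly all actives have a fitted effect of over 40% in size; top concentration of the series not given in the record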
Target sequence (P25779 123-467 limits assumed): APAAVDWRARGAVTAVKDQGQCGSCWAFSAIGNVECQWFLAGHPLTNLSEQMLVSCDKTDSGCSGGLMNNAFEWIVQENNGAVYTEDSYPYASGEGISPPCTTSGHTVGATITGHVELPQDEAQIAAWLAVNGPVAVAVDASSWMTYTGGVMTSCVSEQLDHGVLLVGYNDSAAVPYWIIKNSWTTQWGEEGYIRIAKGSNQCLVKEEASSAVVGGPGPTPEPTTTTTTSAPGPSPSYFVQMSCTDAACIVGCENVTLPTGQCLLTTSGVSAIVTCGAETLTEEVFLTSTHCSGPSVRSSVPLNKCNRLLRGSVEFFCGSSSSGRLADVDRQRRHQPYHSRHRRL
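Detergent-free condition (0.00005% Triton X-100) in acetate buffer pH 5.5 with DTT. 1.5 nM enzyme and compound were pre-mixed 15 min, then 2 uM Z-FR-AMC substrate added; reaction progress from fluorescence change between first and third reads (60 s).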
SARS PLpro yeast – SARS-CoV PLP inhibition in yeast | S. cerevisiae expressing SARS-CoV PLpro, growth rescue; control for the full effect not named in the record | Potency, µM (series often up to 32.9 µM), for inactives: at the top dose activity, positive = growth rescue | actives 0.19% (n = 330,000); active means well fitted rising curve with a large enough effect; inconclusive means small, poorly fitted or top-dose-only effect; inactive means no such curve, though single readings can be large or run the other way; also: 0% is about no effect; nearly all actives have a fitted effect of over 55% in size; growth read by luminescence after 48 h
NS1 inh – inhibitors of influenza NS1 protein function; Potency, µM (series often up to 46.1 µM), without a hit: top-dose activity, positive = more growth; actives 0.4% (n = 270,000); S. cerevisiae slowed by influenza A NS1, growth recovery by OD600; active means well fitted rising curve with a large enough effect; inconclusive means small, poorly fitted or top-dose-only effect; inactive means no such curve, though single readings can be large or run the other way; also: nearly all actives have a fitted effect of over 50% in size
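Growth recovery, yeast-based: influenza A NS1 expressed in S. cerevisiae causes slow growth, and suppressors are detected by OD600. The parent strain without NS1 is used as positive control.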
RE007 growth inh – less growth of the S. pombe RE007 Vpr strain. S. pombe RE007 Vpr strain, BacTiter-Glo ATP luminescence, 24 h; control for the full effect not named in the record. Potency, µM (highest dose often 92.2 µM), without a hit: top-dose activity change, negative = less growth. actives 0.21% (n = 360,000); active = well fitted falling curve with a large enough effect; inconclusive = small, poorly fitted or top-dose-only effect; inactive = no such curve, though single readings can be large or run the other way;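 also: % is scaled to controls: 0 for no effect and ±100 for the full control effect; nearly all actives have a fitted effect of over 50% in size; the assay follows cell death caused by Vpr and the record does not say whether a fall means rescue or toxicity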
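Fission yeast strain RE007, carrying one chromosomally integrated HIV-1 vpr copy, was seeded at OD 0.01 in PMG+AL medium with 23 nL pinned compound. After 24 h at 30 °C and 99% humidity, viability was read by BacTiter-Glo luminescence.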
2A StopGo – FMDV 2A StopGo reporter, luciferase signal; human cells with a luciferase reporter of 2A StopGo recoding; control for the full effect not named in the record; Potency, µM (top dose mostly 57.9 µM), for the others: top-dose signal change, negative = less light; actives 1.2% (n = 410,000); active = well fitted falling curve with a large enough effect; inconclusive = small, poorly fitted or top-dose-only effect; inactive = no such curve, though single readings can be large or run the other way; tested in HEK293T cells; also: % is scaled to controls: 0 for no effect and ±100 for the full control effect; nearly all actives have a fitted effect of over 45% in size; luciferase light after 4 h
Lassa entry inh – Lassa virus entry inhibition; actives 1.2% (n = 300,000); Lassa virus pseudotype entry inhibition, cell reporter; control for the full effect not named in the record; Potency, µM (series often up to 37.9 µM), without a hit: top-dose activity change, negative = inhibition, usual class: inhibitors; active means well fitted inhibition curve with a large enough effect; inconclusive means small, poorly fitted or top-dose-only effect, or effect the other way; inactive means flat fitted curve, though single readings scatter; tested in HEK293 cells; also: % is scaled to controls: 0 for no effect and ±100 for the full control effect; nearly all actives have a fitted effect of over 50% in size; luciferase read-out
Cruzain Triton – blocks cruzain activity in presence of Triton detergent | P25779 | purified cruzain, Z-FR-AMC fluorescence, 0.01% Triton | Potency, µM, without a hit: max response, negative = inhibition, most hits filed as inhibitors | actives 0.43% (n = 200,000);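 also: plate controls were neutral wells for no effect and buffer without enzyme for full effect; nearly all actives have a fitted effect of over 40% in size; top concentration of the series not given in the record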
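Purified cruzain (1.5 nM final) was preincubated with compounds for 15 min at room temperature in 100 mM sodium acetate pH 5.5, 5 mM DTT, 0.01% Triton X-100. Reaction started with 2 uM Z-FR-AMC; AMC fluorescence change over 60 s gave activity.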
* hit, by the source's call; ? = inconclusive; / = not tested or not shown; & = joins results of further samples; [ ] = remark or other dose. Unless noted, calls follow the shape of the dose curve; as a rule, active = well fitted curve in the direction sought with a large enough effect; inconclusive = small, poorly fitted or top-dose-only effect, or another doubt; inactive = no such curve, though single readings can be large; an effect the other way counts as inactive or inconclusive. Potency is read from the fitted curve at half-maximal effect. Hits appear at their usual frequency, and some 4.8% of all compounds hit somewhere here.

SMILES	Marburg entry inh	Cruzain noTriton	SARS PLpro yeast	NS1 inh	RE007 growth inh	2A StopGo	Lassa entry inh	Cruzain Triton
COC(=O)c1nnn(CC(=O)NC(=O)Nc2cccc(C)c2C)c1C(=O)OC	?	9%&-9%	19%	-1%	8%	-27%&-28%	?	-1.7%&-1.2%
COc1cc(/C=C/C(=O)Nc2cccc(S(=O)(=O)NC3=NCCCCC3)c2)ccc1OCC#N	?	/	7%	/	-18%	4%	-28%	/
O=C(c1ccco1)N1CCN(c2ccc(S(=O)(=O)N3CCCC3)cc2)CC1	-5%	-3%	12%	3%	-2%	-25%	-12%	1.2%
CC(C)(CC(=O)O)CC(=O)N1CCCN(c2nc3ccc(Cl)cc3s2)CC1	-10%	/	4%	4%	11%	-16%	4%	/
COc1cc(/C=N/N=C/c2cc(OC)c(O)c(OC)c2)cc(OC)c1O	6%	6%	2%	-6%	12%	-9%	-1%	-12%
Cc1ccc(S(=O)(=O)NCC(=O)OCC(=O)Nc2ncc(Cl)cc2Cl)cc1	-2%&-2%	25µM*	7%	?	5%	-20%	7%	20µM*
Cc1cc(S(=O)(=O)N2CCCCC2CCNC(=O)C(=O)NCC2CCCO2)ccc1F (stereo not given)	15%	/	-2%	/	-1%	-29%	-3%	/
CCn1cc(CN2CCN(CCC(C)C)C(CCO)C2)c2ccccc21 (stereo not given)	/	/	-6%	19%	-10%	-15%	/	/
CN1CC[C@@]2(C)c3cc(O)ccc3N(C)[C@@H]12	/	1%	/	/	-8%[18.4 µM]	-20%&-7%	/	-3.7%
COc1ccc(NC(=O)CSCC(=O)Nc2cc(Cl)ccc2N2CCOCC2)cc1	?	/	-1%	/	6%	-12%	-22%	/
CCn1nnc(NC(=O)c2cccnc2Cl)n1	14%[46.1 µM]	0%	-1%	5%	-7%	30%	15%	2.3%
O=C(Nc1ccnn1C1CCN(C2CCCCC2)CC1)c1cccc(F)c1	/	/	2%	-7%	-1%	-17%	/	/
Cc1cnccc1CNC(=O)CC1C(=O)NCCN1CC(C)(C)C (stereo not given)	-18%[46.1 µM]	/	1%	1%	-10%	5%	4%[46.1 µM]	/
Cc1cc(C(=O)CSc2nnnn2-c2ccccc2)c(C)n1CCc1ccccc1	?	-9%	22%	-2%	10%	-16%	6%	0.5%
O=C(c1ccccc1)N1CCN(C(=O)N2CCCCC2)CC1	-7%	-2%	6%	7%	-7%	2%	-1%	3.2%
CCC(=O)Nc1ccc(NC(=O)CSc2nnnn2C2CCCC2)cc1C	?	/	-1%	11%	-6%	-11%	10%[46.1 µM]	/
C/C(=N/NC(=O)c1cccs1)c1cccc(N)c1	?	/	0%	1%	2%	22%	6%[46.1 µM]	/
O=C(Nc1nccs1)c1cc2sccc2n1Cc1ccc(Cl)cc1	/	?	8%	11%	-12%	5%	/	1.3%
Cc1ccc(Sc2ncccc2COC(=O)Nc2ccccc2)cc1	-28%	5%	-15%	-8%	5%	-4%	16µM*	-6.3%
Cc1cccc(N2C(=O)CCSC23C(=O)N(Cc2ccc(F)cc2)c2ccccc23)c1 (stereo not given)	/	-2%	/	/	/	?	?	-8.9%
COCCNC(=S)Nc1cc2oc3ccccc3c2cc1OC	1%	/	2%	-18%	-11%	25%	1%	/
Cc1ccccc1CN1C(=O)c2ccccc2S(=O)(=O)c2ccc(C(=O)OCC3CCCO3)cc21 (stereo not given)	/	-9%	/	/	/	4%	0%[46.1 µM]	-2.6%
COc1ccc(/C=C(/NC(=O)c2ccccc2)C(=O)N/N=C/c2ccncc2)c(OC)c1	12%	2%	12%	9%	-2%	-11%	?	-12%
Cc1ccccc1Nc1nccc(N(C)C)c1C#N	19%[46.1 µM]	/	0%	8%	0%	13%	18%[46.1 µM]	/
CC1(C)Cc2cccc(OCC(N)=O)c2O1	12%	-3%	1%	0%	12%	-15%	8%	-1.8%
CCOC(=O)CN1CCC(c2cc(-c3ccc(Cl)cc3)n[nH]2)CC1	/	/	0%	-5%	3%	-18%	/	/
O=C(/C=C/c1ccccc1[N+](=O)[O-])NC1CCCC1	?	/	0%	-2%	-5%	34%[activator]	10%	/
CC(C)(C#CC(O)(c1ccccc1)c1ccccc1)N1CCCCC1	/	/	3%	?	-6%	-21%	/	/
Cc1ccc(N(C=NC#N)CC(=O)N2CCN(c3ccccc3)CC2)cc1	13%	8%	-1%	-14%	3%	-24%	-20%	4.7%
CCCN(CC(=O)Nc1cc(Cl)ccc1Cl)C(=O)c1ccccc1SCC(=O)N1CCCC1	-15%	/	2%	/	8%	-17%	7%	/
CCn1cc2nc(SCc3cc(C)ccc3C)n(Cc3ccc(OC)cc3)c(=O)c2n1	/	?	/	/	/	?	?	1.2%
CCN(Cc1ccccc1)C(=O)CSc1nc(C)cc(=O)[nH]1	20%[46.1 µM]	/	-2%	/	10%	-7%	-9%[46.1 µM]	/
CCN1CCN(C(=O)CN(c2ccccc2C)S(C)(=O)=O)CC1	?	-10%	2%	-5%	15%	-8%	9%	7.1%
O=C(Nc1nc2ccccc2[nH]1)c1cccs1	-19%[46.1 µM]	/	-6%	/	-13%	9%	-6%[46.1 µM]	/
Cc1ccc(-n2ncc3c(NCCO)ncnc32)cc1Cl	/	22%	/	/	/	-12%	12%[46.1 µM]	-0.1%
Cc1ccc(C(=O)C(OC(=O)CN2C(=O)c3ccccc3C2=O)c2ccccc2)cc1C (stereo not given)	10%	?	-5%	8%	-12%	-13%	4%	4.9%
Cc1ccc(S(=O)(=O)c2nc(-c3ccco3)oc2SCC(=O)c2ccc(Cl)cc2)cc1	?	?	/	/	/	-3%	?	-8.3%
O=C(CSc1nc2cccnc2n1Cc1ccccc1)NCc1ccco1	-5%[46.1 µM]	-11%	-3%	-1%	0%	-10%	-8%	-4.2%
C/C(=N\NC(=O)c1nnn(-c2nonc2N)c1CSc1ccccc1)c1cccnc1	/	/	2%	27%	3%	1%	/	/
CSc1ccc(S(=O)(=O)NCc2ccc(Cl)cc2Cl)cc1	0%	3%	-28%	-19%	?	71%[activator]	15%	-5.5%
CCc1cccc(C)c1NC(=S)NCC(c1cccnc1)N(C)C (stereo not given)	?	/	1%	/	0%	-1%	8%	/
CCc1ccc(NC(=O)Cn2c(=O)n(CCC(=O)N3CCc4ccccc4C3)c(=O)c3ccccc32)cc1	9%[46.1 µM]	5%	/	/	/	-25%	1%[46.1 µM]	0.5%
CCCn1cnc2scc(-c3ccc(C)c(C)c3)c2c1=O	?	/	-9%	-22%	7%	-27%	3%[46.1 µM]	/
CCc1nnc(SCC(=O)Nc2ccccc2)n1CC1CCCO1 (stereo not given)	3%	/	-2%	3%	-5%	-21%	2%	/
Cc1ccc(/C=C/C(=O)NCc2ccncc2)cc1	?	4%	21%	3%	-3%	22%	?	-1.5%
Nc1nc(SCC(=O)Nc2ccc(S(N)(=O)=O)cc2)n[nH]1	0%[46.1 µM]	/	-1%	1%	2%	5%	10%	/
O=C(CSc1nnc(CNC(=O)c2ccccc2)n1-c1cccc(Cl)c1)Nc1ccccc1F	-22%[46.1 µM]	56%	/	/	/	-15%	?	0.7%
COc1ccc(CC(=O)Nc2nnc(-c3cccc([N+](=O)[O-])c3)s2)cc1	1%	?	16%	26%	4%	-11%	4%	0.0%
O=C(NCCCn1ccnc1)c1ccc(Cl)cc1[N+](=O)[O-]	2%[46.1 µM]	/	-6%	/	17%	5%	2%	/
O=C(Nc1cc(=O)[nH]c(=O)[nH]1)c1cccc(Br)c1	7%[46.1 µM]	/	3%	4%	58%	-10%	21%	/
Cc1ccc(CNC(=O)C2CCN(S(=O)(=O)Cc3ccccc3)CC2)cc1	0%[46.1 µM]	2%	/	/	/	-13%	-3%[46.1 µM]	-2.1%
Cc1cccc(C2=NNC(=O)C(c3ccc(Cl)cc3)C2)c1 (stereo not given)	-27%[46.1 µM]	/	-12%	/	-6%	-15%	?	/
CCN1C=C(Cc2ccccc2C)C2=C(C1)C(c1ccccc1C)C(C#N)=C(N)O2 (stereo not given)	?	-7%	1%	-15%	4%	?	-22%	-3.5%
CC(=O)c1ccc(N2CCN(C(=O)C3CCN(S(=O)(=O)c4cccs4)CC3)CC2)cc1	?	/	-1%	-2%	1%	-15%	-1%[46.1 µM]	/
O=C(Cc1c[nH]c2ccccc12)N1CCN(S(=O)(=O)c2ccc(Cl)cc2)CC1	7%[46.1 µM]	/	-6%	/	3%	-14%	-12%	/
CCOC(=O)c1c(C)[nH]c(C)c1S(=O)(=O)N(C)CC(=O)N1CCN(c2ccc(OC)cc2)CC1	/	/	0%	-24%	1%	30%[activator]	/	/
O=C(NCc1n[nH]c(=O)c2ccccc12)C1CC(=O)N(c2ccccc2)C1 (stereo not given)	?	/	1%	/	-13%	-1%	-22%	/
O=C(COC(=O)c1ccc(O)cc1O)NC1CCS(=O)(=O)C1 (stereo not given)	-2%[46.1 µM]	/	0%	-3%	26%	8%	3%	/
COCCN(C(=O)COC(=O)CSc1ccc(Cl)cc1)c1c(N)n(Cc2ccccc2)c(=O)[nH]c1=O	22%	/	1%	/	-9%	0%	2%	/
CC1=CCC2C(=O)N(c3ccc(Br)cc3C)C(=O)C2C1 (stereo not given)	-2%	10%	5%	-13%	-13%	-27%	1%	0.1%

Further entries
SMILES	Marburg entry inh	Cruzain noTriton	SARS PLpro yeast	NS1 inh	RE007 growth inh	2A StopGo	Lassa entry inh	Cruzain Triton
CC(C)=N/N=c1\scc(C)n1Cc1ccco1	5%[46.1 µM]	/	-1%	/	-3%	-10%	-2%	/
CC(Oc1ccc2ccc(=O)oc2c1)C(=O)NC1CC(C)(C)NC(C)(C)C1 (stereo not given)	/	/	22%	-8%	-4%	23%	/	/
Cc1ccc(C)c(S(=O)(=O)N2CCN(C(=O)c3cnccn3)CC2)c1	-2%	0%	-1%	16%	-5%	-13%	1%	-2.8%
CCOC(=O)CN1C(=O)C(C)(C)Oc2ccc(C(=O)Nc3ccccc3)cc21	-1%	6%	3%	?	-8%	-4%	-13%	-0.3%
Cc1c(OCC(=O)NCc2ccccn2)ccc2c3c(c(=O)oc12)CCCC3	/	/	-1%	1%	-8%	-8%	/	/

Source: PubChem
